UCH37 inh – inhibitors of human UCH37 deubiquitinase, primary screen, biochemical, Ub-AMC cleavage, fluorescence; hit rate 0.33% among 330,000; purified proteasome/UCH37; inhibition, % (concentration not given with the values); AID 588478, 2011; Ubiquitin carboxyl-terminal hydrolase isozyme L5 (Homo sapiens), Q9Y5K5;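 active = mean of two replicates above 20%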;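 also: 0% = compound-free wells with enzyme and 100% = wells lacking proteasome; stock transfer was 100 nL into about 20 µL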
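system = Proteasome-associated human UCH37 deubiquitinase | amount = 0.15 nM proteasome as dispensed | medium = pH 7.4 Tris-HCl (50 mM) with ovalbumin, ATP-MgCl2, DTT | incubation = 30 min preincubation with enzyme, 25 min cleavage at room temperature | detection = AMC fluorescence 355/460 nm | read-out basis = percent inhibition | controls = no-proteasome and no-compound wells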
HNF4A DNA FP – change in binding of human HNF4A to DNA, primary screen, biochemical, fluorescence polarization, FITC-DNA; 1 h; activity change, % at 10 µM; hit rate 0.3% among 360,000; in the data active = activity change above about 30%, passing the limit was not always enough;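 also: controls were the assay level and a saturating level of protein; the project sought stronger binding though the title names inhibitors; some compounds called inactive have numbers as strong as hits; positive values seem to mean higher polarization but the record does not say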
Target sequence (P41235 whole entry, looked up): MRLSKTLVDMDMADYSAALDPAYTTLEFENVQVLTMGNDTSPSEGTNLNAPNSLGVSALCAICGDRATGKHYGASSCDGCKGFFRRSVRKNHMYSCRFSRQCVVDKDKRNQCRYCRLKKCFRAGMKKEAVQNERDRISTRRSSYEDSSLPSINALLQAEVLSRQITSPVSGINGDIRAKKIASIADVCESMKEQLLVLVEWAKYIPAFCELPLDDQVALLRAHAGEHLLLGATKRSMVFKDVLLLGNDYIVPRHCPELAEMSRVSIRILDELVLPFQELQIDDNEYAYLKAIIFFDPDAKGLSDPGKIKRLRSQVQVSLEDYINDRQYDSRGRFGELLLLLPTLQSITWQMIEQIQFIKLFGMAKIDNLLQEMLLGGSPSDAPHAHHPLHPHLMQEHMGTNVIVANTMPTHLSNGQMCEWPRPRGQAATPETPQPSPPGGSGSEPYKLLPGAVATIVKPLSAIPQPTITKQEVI
RanGTP-Impb inh – inhibitors of RanGTP-importin-beta interaction, primary screen, biochemical, FRET, CFP-Ran, YFP-importin-beta, homogeneous; inhibition, % (test concentration not listed); cell-free CFP-Ran/YFP-importin-beta FRET ratio; hit rate 1.1% among 300,000; Ran GTPase (GTP-bound) - importin-beta complex; AID 2216, 2009;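 active = most replicates above 15%; inconclusive = exactly half above 15%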;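 also: 0% = DMSO wells and 100% = Ran loaded with GDP instead of GTP; wells of about 40 µL received 100 nL stock; the first replicate is given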
Vif TR-FRET – inhibitors of Vif binding to APOBEC3G peptide, primary screen, biochemical, TR-FRET, GST-Vif 1-94, biotin-A3G peptide, dose response retest (AID 1117319); TR-FRET GST-Vif / biotin-A3G peptide binding; higher % means a stronger effect; test concentration not given here; strong numbers were not always called active; hit rate 0.57% among 260,000; one-dose inhibition, %; IC50 in µM for titrated hits; Virion infectivity factor (Human immunodeficiency virus type 1 group M subtype B (isolate …;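 active = above the screen mean plus three standard deviations and confirmed in dose response; inconclusive = results disagree or hit not tested in dose response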;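 also: Vif residues 1-94 fused to GST binding biotinylated APOBEC3G peptide 110-148; 0% = full assay without inhibitor and 100% = GST in place of GST-Vif; retest series ran down from 100 µM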
AF4-AF9 inh – inhibitors of AF4 peptide binding to AF9, primary screen, biochemical, AlphaScreen, biotin-AF4 peptide, FLAG-AF9, single point | Protein AF-9 (Homo sapiens), P42568 | inhibition, % at 10 µM | hit rate 0.47% among 350,000;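 active = every replicate reaching a set inhibition limit, whatever the replicate mean, cut at about 25% in these data; inconclusive = mean inhibition reaches that limit but some replicates miss it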;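 also: 0% = plate neutral control median and 100% = total signal loss; the record names both 10 and 1 µM as test concentration; the first replicate is given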
Target sequence (P42568 whole entry, looked up): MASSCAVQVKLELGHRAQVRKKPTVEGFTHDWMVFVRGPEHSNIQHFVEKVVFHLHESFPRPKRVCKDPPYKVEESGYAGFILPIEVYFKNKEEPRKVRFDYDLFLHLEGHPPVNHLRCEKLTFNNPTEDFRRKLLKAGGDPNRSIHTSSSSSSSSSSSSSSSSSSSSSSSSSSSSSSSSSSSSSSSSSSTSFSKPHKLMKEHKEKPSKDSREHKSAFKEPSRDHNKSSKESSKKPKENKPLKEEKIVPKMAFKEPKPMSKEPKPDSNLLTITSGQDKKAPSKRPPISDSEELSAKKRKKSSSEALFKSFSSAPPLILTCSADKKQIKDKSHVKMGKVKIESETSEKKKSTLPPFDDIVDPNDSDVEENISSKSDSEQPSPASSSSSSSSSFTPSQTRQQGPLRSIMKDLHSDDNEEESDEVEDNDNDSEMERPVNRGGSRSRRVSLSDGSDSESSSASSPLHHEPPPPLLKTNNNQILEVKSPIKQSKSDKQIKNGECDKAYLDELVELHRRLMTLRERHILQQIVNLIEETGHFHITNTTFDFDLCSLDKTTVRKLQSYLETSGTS
Ecoli growth – E. coli growth inhibition, primary screen, OD600. OD600 absorbance (no concentration beside the values). hit rate 0.21% among 330,000. Escherichia coli growth, 23 h; stronger effect = lower value. AID 1053175, 2014;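 active = OD600 absorbance below the run mean of sample wells minus 3.6 SD, in any replicate, cut at about 0.56 in these data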;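 also: stock transfer was 300 nL into about 60 µL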
FGF22 binding – binders of human FGF22 protein, primary screen, FGF22 synaptogenesis inhibitor project, biophysical, thermal shift, single point; AID 651658, 2012; hit rate 1.5% among 340,000; recombinant FGF22 thermal shift, SYPRO orange fluorescence; percent of sucrose octasulfate shift, DMSO zero; Fibroblast growth factor 22 (Homo sapiens), Q9HCT0; calls only at 9.99 µM;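 active = melting point raised past a set limit in the mean and every replicate; inconclusive = no clear call; three in four hits are not shown here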
Active calls of the source: *; i = inactive; ? = inconclusive; nt = no result given.

structure	UCH37 inh	HNF4A DNA FP	RanGTP-Impb inh	Vif TR-FRET	AF4-AF9 inh	Ecoli growth	FGF22 binding
CSc1ccc(/C=N/NC(=O)c2sccc2C)cc1	nt	2.5	?	-2%	-2.2	nt	i
COCCNC(=O)C(OC(=O)c1ccco1)c1ccccc1OC (stereo unspecified)	0.7	2.1	-1.8	?	nt	0.7	nt
CCc1ccc(NC(=O)CSc2nnc(CNC(=O)c3ccco3)o2)cc1	2.8	1.4	-1.3	nt	-3.8	0.7	i
C=CCn1c(=N)n(CC(=O)c2ccc(Cl)cc2)c2ccccc21	4.1	-1.1	0.1	2%	2.2	0.64	i
Cc1ccc(/C=C/C(=O)Nc2ncc(C)s2)o1	-113	3.3	4.7	7.1µM*	-21	0.67	i
CC(C)CCNC(=O)CN(CC1CCCO1)C(=O)CCC(=O)Nc1ccccn1 (stereo unspecified)	0.5	-4.3	1.7	26%	nt	0.78	nt
CN(C)c1ccc(NC(=O)/C=C/c2c(Cl)cccc2Cl)cc1	3.2	1.9	3.1	15%	4.4	nt	i
O=C(Cc1coc2cc(O)ccc12)NNC(=O)c1ccc(Br)s1	3.0	1.5	nt	nt	-11	0.62	i
CCCCNC(=O)c1c(CSc2ccc(Cl)cc2)noc1C(=O)NCCC	2.0	-0.3	1.1	nt	-5.0	0.69	i
O=C(COC(=O)c1ccccc1Br)NCCc1ccc(F)cc1	3.1	-2.3	0.2	nt	1.2	0.68	i
O=C(c1ccc(Br)cc1)N(C1=NCCCCS1)c1ccccc1	1.3	-1.8	5.7	5%	nt	0.72	nt
COc1ccc(NC(=O)N2CCC(NC(=O)c3ccco3)CC2)cc1	0.3	1.1	-0.6	4%	nt	0.72	nt
Cc1cc2ccccc2c(=O)n1CC(=O)NC1CCCCCC1	0.2	-3.0	-0.2	6%	nt	0.67	nt
CCCN1Cc2cccc(C(=O)NC(C)c3cccs3)c2C1=O (stereo unspecified)	-0.3	1.4	7.2	-6%	nt	0.69	nt
CCOc1ccc(N(C)C(=O)CCc2nnc3ccc(NCc4ccco4)nn23)cc1	-0.6	-6.3	6.5	nt	3.8	0.68	i
C=CCOc1ccc(/C=N/NC(=O)CN(c2cc(Cl)ccc2OC)S(=O)(=O)c2ccc(C)c([N+](=O)[O-])c2)cc1	nt	2.5	5.9	nt	-7.1	nt	i
CCCCN(CC)CCCNC(=O)c1ccc(CS(=O)(=O)c2c(Cl)cccc2Cl)o1	6.0	-1.2	-0.6	-6%	-42	0.67	i
COc1ccccc1NC(=O)c1ccc2c(c1)C(=O)N(Cc1ccco1)C2=O	-4.5	2.3	nt	nt	-1.6	0.66	i
CC(C)NC(=O)COC(=O)Cn1[nH]c(=O)c2ccccc2c1=O	5.1	1.7	3.3	23%	-4.6	0.67	i
CN(Cc1ccccc1)c1nc2nonc2nc1N1CCCC(CN2CCCC2=O)C1 (stereo unspecified)	5.8	1.9	1.2	0%	4.3	0.65	i
Cc1ccc(-c2nnc(SCCC(=O)N3CCOCC3)o2)cc1	1.8	0.6	?	12%	-4.1	0.66	nt
O=C(NC(=S)Nc1ncccn1)c1ccc(F)cc1	3.3	3.1	?	nt	4.2	0.71	i
O=C(c1ccc(Cl)c(S(=O)(=O)Nc2ccc(F)cc2)c1)N1CCN(c2ccccn2)CC1	1.3	4.4	2.7	4%	nt	0.75	nt
CC(C)(c1ccccc1)c1ccc(OCCN)cc1	1.8	2.0	3.4	0%	4.2	0.66	i
O=C(CCc1c[nH]c2ccccc12)NCc1ccco1	4.4	-3.9	?	15%	-2.2	0.71	i
COc1cc(C(C)=O)ccc1OCC(=O)NCC1(N2CCCCC2)CCCCC1	-3.0	1.8	0.6	1%	0.2	0.65	i
CCOC(=O)c1c(C)n(C)c2ccc(OCC(O)CN(CC)CC)cc12 (stereo unspecified)	4.7	0.1	-3.0	-7%	-5.7	0.79	i
COc1ccc(NC(=O)CCC(=O)N/N=C/c2ccncc2)cc1	nt	14	4.7	-4%	2.1	nt	i
CC(C(=O)NCC(=O)Nc1ccc(F)c(F)c1F)N1CCN(c2ccc(O)cc2)CC1 (stereo unspecified)	2.9	2.6	nt	nt	-0.1	0.7	i
Cc1ccc(C)c(NC(=O)CN(C)C(=O)c2ccccc2OCc2c(C)noc2C)c1	-0.3	1.8	nt	7%	-0.1	0.7	i
O=C(NCc1ccccc1)c1ccc(NS(=O)(=O)c2cccs2)cc1	-1.3	-2.6	nt	9%	-3.4	0.63	i
COc1ccc(OCc2nnc(SCC(N)=O)n2-c2ccccc2OC)cc1	1.5	-0.4	-4.4	3%	nt	0.71	nt
O=C(O)c1cccc(-c2nc3ccccc3[nH]2)c1	-7.8	3.0	-1.2	-8%	-3.5	0.68	i
O=C(Nc1ccc(N2CCN(C(=O)c3ccco3)CC2)cc1)c1ccc2c(c1)OCO2	-0.7	2.9	-1.6	15%	nt	0.64	nt
Cc1ccc(-c2nc(C3CCN(S(=O)(=O)c4ccc(C(C)(C)C)cc4)CC3)no2)cc1	2.6	0.1	2.4	3%	4.9	0.74	i
O=S(=O)(c1ccccc1)N1CCN=C1SCc1ccccc1Cl	0.3	-1.8	2.1	-6%	-1.1	0.67	i
O=[N+]([O-])c1cc(S(=O)(=O)Nc2cccc(Cl)c2)ccc1N=Nc1c(O)[nH]c2ccccc12	11	-0.4	?	14%	2.7	0.7	i
CCc1ccc(N2CC(C(=O)Nc3ccc(S(=O)(=O)NCC4CCCO4)cc3)CC2=O)cc1 (stereo unspecified)	nt	-0.1	6.7	nt	0.7	nt	i
CN(C)c1nccc(NCc2ccccc2)c1C#N	6.0	2.0	3.3	nt	-1.4	0.69	i
CSCCC(NC(=O)c1ccccc1)C(=O)N1CCN(C(C)=O)CC1 (stereo unspecified)	-0.9	0.2	nt	1%	-0.2	0.62	i
CN(C)C(CNS(=O)(=O)c1ccc(Br)cc1)c1cccnc1 (stereo unspecified)	1.8	5.8	4.3	21%	nt	0.69	nt
O=C(c1cc(C(=O)NCCc2ccccc2)c(=O)n(CCc2ccccc2)c1)c1cc(Cl)ccc1O	4.0	0.0	2.6	2%	nt	0.71	nt
O=C(COC(=O)c1cc(S(=O)(=O)N2CCCCC2)ccc1Cl)NC1CCS(=O)(=O)C1 (stereo unspecified)	-3.4	-3.1	nt	nt	5.3	0.68	i
O=C(O)Cn1cc(/C=c2/sc3nc4ccccc4n3c2=O)c2ccccc21	nt	28	8.5	nt	2.5	nt	nt
Cc1ccc(C)c(OCC(O)CN2CCCCC2C)c1 (stereo unspecified)	5.5	2.6	1.8	-1%	nt	0.77	nt
COc1ccc(C(=O)N/N=C/c2cc(Br)ccc2O)cc1OC	nt	1.3	4.2	-7%	9.5	nt	i
COC(=O)Nc1nn(Cc2ccccc2F)cc1Br	1.2	-2.0	-0.6	3%	nt	0.74	nt
CCc1c(C)sc(NC(=O)c2cccs2)c1C(N)=O	-0.9	-3.3	?	1%	nt	0.66	nt
O=C(Cn1cnc2c(NCc3ccccc3)ncnc21)NCc1ccccn1	-1.3	-0.6	nt	0%	-0.6	0.71	i
COc1ccc(CC(=O)c2ccc(OC3OC(CO)C(O)C(O)C3O)cc2O)cc1 (stereo unspecified)	1.1	-0.6	-0.5	-7%	-2.6	0.65	i
O=C(Nc1cnccn1)Nc1cccc(Cl)c1Cl	-0.7	6.7	1.9	-7%	-0.8	0.67	i
Cc1nn(C)c(Cl)c1CN1CCC(Oc2ccc(C(=O)N3CCCC3)cc2)CC1	5.0	0.7	0.1	-8%	0.0	0.7	i
CCn1c(CNC(=O)c2ccc(Cl)cc2)nnc1SCC(=O)NC1=NCCS1	2.3	-1.5	0.2	nt	-0.1	0.71	i
Cc1c(NC(=O)CSc2nnc(-c3ccncc3)o2)c(=O)n(-c2ccccc2)n1C	2.4	0.8	?	4%	2.0	0.71	i
O=C(O)c1ccc(CSc2nnc(-c3ccccc3Cl)n2-c2ccccc2)cc1	2.1	1.8	3.8	3%	1.1	0.66	i
Cc1cc(-c2ccc(C)c(S(=O)(=O)N3CCN(c4ccccn4)CC3)c2)on1	-0.2	-2.3	0.5	-6%	-0.9	0.72	i
CCN(CC)CCn1c(=S)[nH]c2ncccc2c1=O	1.0	-4.7	0.0	17%	nt	0.72	nt
NCCCCCc1nnc(SC/C=C/c2ccccc2)o1	4.5	3.6	-2.8	-1%	nt	0.63	nt
Cc1ccc(C(=O)Nc2cc(Cl)ccc2Oc2ccccc2)cc1[N+](=O)[O-]	1.7	0.9	-0.6	nt	nt	0.67	nt
CC(C)(C)CC(=O)O/N=C(\N)c1ccccn1	2.2	3.0	-0.3	?	nt	0.66	nt

Some of these compounds in order of the HNF4A DNA FP value, high to low:
| Structure | HNF4A DNA FP |
| --- | --- |
| O=C(O)c1cccc(-c2nc3ccccc3[nH]2)c1 | 3.0 |
| COCCNC(=O)C(OC(=O)c1ccco1)c1ccccc1OC (stereo unspecified) | 2.1 |
| CC(C)NC(=O)COC(=O)Cn1[nH]c(=O)c2ccccc2c1=O | 1.7 |

Other records
structure	UCH37 inh	HNF4A DNA FP	RanGTP-Impb inh	Vif TR-FRET	AF4-AF9 inh	Ecoli growth	FGF22 binding
CC1CC(=O)Nc2ccccc2N1C(=O)CSc1ccc2ccccc2n1 (stereo unspecified)	4.9	-2.0	nt	nt	2.2	0.68	i
COc1ccccc1CCN1CCCC(CN(C)C(=O)c2ccc3nc[nH]c3c2)C1 (stereo unspecified)	4.3	3.1	-1.2	-8%	2.2	0.71	i
O=C(Nc1cccc(-c2nn[nH]n2)c1)c1ccc(Cl)s1	1.4	-0.9	-0.9	nt	-1.5	0.68	i
Cc1ccc(N/C(N)=N/c2nc(C)cc(N3CCCCC3)n2)c(C)c1	2.5	2.7	-1.1	-11%	10	0.63	i
C#CCOCCOCCOCCNc1nc(N2CCN(C(=O)[C@H]([C@@H](C)CC)n3cc(CCC(=O)O)nn3)CC2)nc(N2CCN(C(=O)[C@H](C)n3cc(CCCN=C(N)N)nn3)CC2)n1	4.3	-0.7	-2.7	-2%	?	nt	i
CCCC(O)(CCN1CCOCC1)c1ccc(Br)cc1 (stereo unspecified)	1.3	0.4	2.0	2%	nt	0.72	nt
Cc1ccc2nc(N=C(N)N)nc(C)c2c1	-0.5	7.4	4.0	-7%	-0.4	0.7	i
COCCN(C(=O)CN1CCCc2ccccc21)c1c(N)n(Cc2ccccc2)c(=O)[nH]c1=O	2.2	3.8	6.2	10%	nt	0.72	nt
Cc1ccnc(NC(=O)CCC(=O)N(CC(=O)NCC2CCCO2)Cc2ccc(F)cc2)c1 (stereo unspecified)	0.2	-0.8	nt	?	nt	0.74	nt
Cc1cc(C(=O)Nc2ccc([N+](=O)[O-])cn2)cs1	3.5	-0.9	1.5	6%	-4.1	0.68	i
CC(=O)c1cc(CN2CCC(N3CCC(C(=O)NC(C)C)CC3)CC2)cs1	2.1	-1.0	0.9	-5%	0.5	0.71	i

An excerpt, so the mix of outcomes need not match the whole.
